Screens (PubChem BioAssay)
NS1 inh: qHTS Assay for Inhibitors of Influenza NS1 Protein Function | hit rate 0.4% among 270,000 | Potency, µM (doses to about 46.1 µM), for inactives: at the top dose activity, positive = more growth | S. cerevisiae slowed by influenza A NS1, growth recovery by OD600; active means well fitted rising curve with a large enough effect; inconclusive means small, poorly fitted or top-dose-only effect; inactive means no such curve, though single readings can be large or run the other way; further: nearly all actives have a fitted effect of over 50% in size
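In this qHTS, NS1 from influenza A is expressed in budding yeast, where it slows growth. Cells are switched from glucose to 2% galactose medium (pH 6.0, -URA), treated with compound, and growth recovery is read at OD600.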
LASV entry inh: qHTS for Inhibitors of binding or entry into cells for Lassa Virus; Lassa virus pseudotype entry inhibition, cell reporter; control for the full effect not named in the record; Potency, µM (highest dose often 37.9 µM), for the others: top-dose activity change, negative = inhibition, hits mostly inhibitors; hit rate 1.2% among 300,000; active means well fitted inhibition curve with a large enough effect; inconclusive means small, poorly fitted or top-dose-only effect, or effect the other way; inactive means flat fitted curve, though single readings scatter; tested in HEK293 cells; further: on the % scale 0 is the no-effect control and ±100 the full control effect; nearly all actives have a fitted effect of over 50% in size; luciferase read-out
RE007 growth inh: qHTS Assay for Inhibitors of the HIV-1 protein Vpr; S. pombe RE007 Vpr strain, BacTiter-Glo ATP luminescence, 24 h; control for the full effect not named in the record; Potency, µM (highest dose often 92.2 µM), without a hit: at the highest dose activity change, negative = less growth; hit rate 0.21% among 360,000; AID 651644, 2012; active = well fitted falling curve with a large enough effect; inconclusive = small, poorly fitted or top-dose-only effect; inactive = no such curve, though single readings can be large or run the other way;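 further: on the % scale 0 is the no-effect control and ±100 the full control effect; nearly all actives have a fitted effect of over 50% in size; the assay follows cell death caused by Vpr and the record does not say whether a fall means rescue or toxicity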
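Fission yeast RE007 carrying one integrated HIV-1 vpr copy, seeded at OD 0.01 in PMG+AL medium with 23 nL pinned compound. Grown 24 h at 30 degrees; viability read by BacTiter-Glo luminescence after 5 min.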
Cruzain noTriton: qHTS Assay for Promiscuous and Specific Inhibitors of Cruzain (without detergent) | Cruzipain (Trypanosoma cruzi), P25779 | purified cruzain, Z-FR-AMC fluorescence, no detergent | Potency, µM, without a hit: max response, negative = inhibition, usual class: inhibitors | hit rate 2.3% among 200,000;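 further: plate controls were enzyme without inhibitor for no effect and buffer without enzyme for full effect; nearly all actives have a fitted effect of over 40% in size; top concentration of the series not given in the record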
Target sequence (P25779 123-467 limits assumed): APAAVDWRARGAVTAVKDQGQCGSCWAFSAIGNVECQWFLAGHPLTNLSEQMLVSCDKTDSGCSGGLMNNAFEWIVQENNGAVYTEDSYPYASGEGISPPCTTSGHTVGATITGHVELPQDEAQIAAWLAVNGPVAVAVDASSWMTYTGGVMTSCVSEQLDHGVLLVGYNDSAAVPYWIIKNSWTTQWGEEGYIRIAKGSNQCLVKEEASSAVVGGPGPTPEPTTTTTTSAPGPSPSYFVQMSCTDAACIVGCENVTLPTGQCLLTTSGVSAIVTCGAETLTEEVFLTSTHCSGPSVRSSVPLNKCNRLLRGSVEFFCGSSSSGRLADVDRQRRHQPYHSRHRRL
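Purified cruzain at 1.5 nM, pre-incubated 15 min with compound at room temperature in 100 mM sodium acetate pH 5.5, 5 mM DTT, 0.00005% Triton X-100. Reaction started with 2 uM Z-FR-AMC; AMC fluorescence increase over 60 s gives rate.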
SARS PLP yeast: qHTS of Yeast-based Assay for SARS-CoV PLP; Potency, µM (top dose mostly 32.9 µM), without a hit: top-dose activity, positive = growth rescue; hit rate 0.19% among 330,000; S. cerevisiae expressing SARS-CoV PLpro, growth rescue; control for the full effect not named in the record; AID 485353, 2010; active means well fitted rising curve with a large enough effect; inconclusive means small, poorly fitted or top-dose-only effect; inactive means no such curve, though single readings can be large or run the other way; further: 0% is about no effect; nearly all actives have a fitted effect of over 55% in size; growth read by luminescence after 48 h
MARV entry inh: qHTS for inhibitors of binding or entry into cells for Marburg Virus; AID 540276, 2011; Potency, µM (titrated, usually from 37.8 µM), without a hit: top-dose activity change, negative = inhibition, most hits filed as inhibitors; Marburg virus pseudotyped entry inhibition, cell reporter; control for the full effect not named in the record; about a third of the inactives were read at about 46 µM; hit rate 1.8% among 300,000; active = well fitted inhibition curve with a large enough effect; inconclusive = small, poorly fitted or top-dose-only effect, or effect the other way; inactive = flat fitted curve, though single readings scatter; tested in HEK293 cells; about a fifth of its hits are not listed in these tables; further: on the % scale 0 is the no-effect control and ±100 the full control effect; luciferase read-out
2A StopGo: High Throughput Screening for Foot and Mouth Disease Virus Antivirals. human cells with a luciferase reporter of 2A StopGo recoding; control for the full effect not named in the record. Potency, µM (series often up to 57.9 µM), without a hit: top-dose signal change, negative = less light. hit rate 1.2% among 410,000. AID 1159524, 2015; active = well fitted falling curve with a large enough effect; inconclusive = small, poorly fitted or top-dose-only effect; inactive = no such curve, though single readings can be large or run the other way; tested in HEK293T cells; further: on the % scale 0 is the no-effect control and ±100 the full control effect; nearly all actives have a fitted effect of over 45% in size; luciferase light after 4 h
Cruzain inh Det: qHTS Assay for Promiscuous and Specific Inhibitors of Cruzain (with detergent); Cruzipain (Trypanosoma cruzi), P25779; purified cruzain, Z-FR-AMC fluorescence, 0.01% Triton; Potency, µM, for the others: max response, negative = inhibition, most hits filed as inhibitors; hit rate 0.43% among 200,000; AID 1478, 2009;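 further: plate controls were neutral wells for no effect and buffer without enzyme for full effect; nearly all actives have a fitted effect of over 40% in size; top concentration of the series not given in the record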
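Read-out: AMC fluorescence (360 nm excitation, 450 nm emission), four reads over 2 min, first-to-third difference used. Conditions: cruzain 1.5 nM, Z-FR-AMC 2 uM, pH 5.5 acetate, 5 mM DTT, 0.01% Triton X-100.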
An asterisk follows results filed as active; u = inconclusive; x = no result given; [ ] = dose if it differs, or a comment. Unless noted, the call rests on the fitted dose curve; in most records, active means well fitted curve in the direction sought with a large enough effect; inconclusive means small, poorly fitted or top-dose-only effect, or another doubt; inactive means no such curve, though single readings can be large; an effect the other way counts as inactive or inconclusive. Potency means the concentration at half of the fitted maximal effect.

SMILES	NS1 inh	LASV entry inh	RE007 growth inh	Cruzain noTriton	SARS PLP yeast	MARV entry inh	2A StopGo	Cruzain inh Det
COc1ccc([N+](=O)[O-])cc1N(CC(O)Cn1nnc2ccccc21)S(=O)(=O)c1ccc(C)cc1 (stereo unspecified)	12%	6%	12%[3.69 µM]	-3%	2%	-11%	30%[activator]	-1.8%
CCCCNC(=O)Nc1nc2ccccc2s1	x	1%[46.1 µM]	8%	x	-2%	u	18%	x
Cc1cc(C)n(S(=O)(=O)c2ccc(C(C)(C)C)cc2)n1	-15%	3%	3%	8%	-4%	-3%	5%	1.9%
CCc1cc(=O)oc2cc(OCC(=O)N3CCC(C(N)=O)CC3)ccc12	9%	x	11%	x	-3%	x	-11%	x
COc1ccc(NC(=O)CSc2nc(O)cc(=O)[nH]2)c(OC)c1	12%	x	-1%	x	0%	x	-8%	x
O=C(CC(=O)c1c(F)cccc1Cl)c1ccccc1O	-110%	u	u	x	-6%	u	-6%	x
Cc1cccc(NC(=O)CN2C(=O)NC(C)(c3ccc4c(c3)OCO4)C2=O)c1 (stereo unspecified)	4%	0%	-3%	-2%	-4%	-3%	-10%	-7.0%
O=S(=O)(c1ccc(N=C2NN=C(c3cc(F)ccc3F)CS2)cc1)N1CCOCC1	x	13µM*	-9%	x	-2%	5µM*	-29%	x
O=C(c1cccc(N2CCCC2=O)c1)N1CCN(c2ccccc2)CC1	-1%	-8%	9%	-1%	9%	-1%	-11%	2.0%
COc1cccc(NC(=O)CN2C(=O)c3ccccc3Sc3ncccc32)c1	x	-11%[46.1 µM]	x	12%	x	x	4%	-2.2%
COC(=O)C1=C(C)OC(N)=C(C#N)C1c1cc2cc(C)ccc2nc1Cl (stereo unspecified)	2%	5%	-1%	x	0%	-4%[46.1 µM]	32%[activator]	x
O=C(O)c1ccc(N2CC3CC(C2)c2cccc(=O)n2C3)c(NS(=O)(=O)c2cccc(C(F)(F)F)c2)c1 (stereo unspecified)	x	-11%[46.1 µM]	-1%	x	-1%	0%[46.1 µM]	-4%	x
Cc1ccc(C(=O)COC(=O)COc2ccccc2C)cc1	3%	-3%	1%	x	4%	0%	-14%	x
COc1ccc(/C(N)=N/OC(=O)CN(C)S(=O)(=O)c2ccc(C)cc2)cc1	-5%	x	1%	x	-1%	x	-8%	x
COc1ccc(N2CCN(S(=O)(=O)c3ccc4oc(=O)c5ncn(C)c5c4c3)CC2)cc1	x	17%[46.1 µM]	x	-16%	x	x	-5%	-3.8%
N#Cc1c(-c2ccc3c(c2)OCO3)csc1N	-31%	14%	u	-16%	-13%	6%	20%	-3.0%
CCOC(=O)C1(CCc2ccccc2)CCN(Cc2cccc3cnccc23)CC1	1%	u	1%	x	-1%	u	u	x
CCN1CCC(O)(C(C(=O)O)c2ccccc2)CC1 (stereo unspecified)	x	17%	3%	x	x	23%	-10%	x
COCCCNC(=O)CCc1c(C)nc2c(-c3ccc(F)cc3)c(C)nn2c1C	-7%	x	5%	x	-2%	x	-29%	x
Cc1ccc(C)c2c1[nH]c1ccc([N+](=O)[O-])cc12	-78%	u	u	-19%	-25%	-16%	-12%	-8.1%
O=C1C2C(C(=O)N1/N=C/c1cccc([N+](=O)[O-])c1)C1C=CC2C12CC2 (stereo unspecified)	-22%	u	8%	-5%	-7%	37%	9%	-2.6%
COCCNC(=O)C1CCC(CNS(=O)(=O)c2ccccc2)CC1 (stereo unspecified)	1%	x	0%	x	0%	x	-6%	x
Cc1cccc(NNC(=O)C(=O)NNc2cccc(C)c2)c1	-4%	x	31%	x	-2%	x	-11%	x
CCOc1ccc(CNc2ccc(CNc3ncn[nH]3)cc2)cc1	10%	x	0%	x	-1%	x	-25%	x
CCCc1nn2c(=O)cc(COC(=O)c3ccccc3NC(=O)COc3ccccc3)nc2s1	x	-3%[46.1 µM]	x	1%	x	x	-23%	0.2%
CN(C)C(=O)Cn1nc(-c2ccccc2)c2ccccc2c1=O	-3%	-6%	11%	-5%	1%	-11%[46.1 µM]	2%	0.5%
CC(C)Cn1c(CN2CCN(c3ccccc3F)CC2)nc2c1c(=O)[nH]c(=O)n2C	9%	x	1%	14%	-4%	x	-22%	0.4%
O=C(OCc1ccco1)c1ccc2c(c1)N(Cc1ccc([N+](=O)[O-])cc1)C(=O)c1ccccc1S2	x	-10%[46.1 µM]	x	-14%	x	x	-20%	-2.5%
CCS(=O)(=O)c1ccc2c(c1)N(S(C)(=O)=O)CC(C(=O)NN)O2 (stereo unspecified)	x	10%	5%	x	0%	25%[46.1 µM]	-4%	x
O=C(COC(=O)c1cnccn1)NCCc1ccccc1	9%	-10%	-2%	-13%	3%	8%	0%	2.3%
CC(C)n1nc(C(=O)OCC(=O)c2c[nH]c3ccccc23)c2ccccc2c1=O	6%	-14%	-8%	-18%	16%	u	0%	-2.7%
COc1cc(CCC(=O)OCC(=O)N(CC(C)C)C2CCS(=O)(=O)C2)cc(OC)c1OC (stereo unspecified)	x	5%	3%	x	1%	-6%	0%	x
COc1ccc(NC(=O)CNC(=O)Cc2ccccc2)cc1	-2%	u	-16%	x	4%	u	20%	x
COc1cc(NC(=O)Cc2ccccc2)cc(OC)c1	2%	26%	5%	-1%	2%	8%	49%[activator]	2.6%
CCCc1nn2c(=O)cc(CSCC(=O)Nc3cccc(OC)c3)nc2s1	-2%	11%[46.1 µM]	-3%	x	4%	1%[46.1 µM]	-12%	x
COCC(C)NC(C(=O)Nc1cccc(C(C)=O)c1)c1ccccc1 (stereo unspecified)	5%	-11%	-22%	x	-1%	-1%[46.1 µM]	-2%	x
Cc1cc(=O)[nH]c(SCC(=O)Nc2ccc(C)c(S(=O)(=O)N3CCCCC3)c2)n1	-3%	-8%	6%	x	-4%	-2%[46.1 µM]	-15%	x
CC(C)NC(=O)c1ccc(NC(=O)N2CCCCc3ccccc32)cc1	x	5%[46.1 µM]	x	-7%	x	x	-7%	0.4%
CC(C)n1c(SCC(=O)N2CCCCC2)nc2c1c(=O)n(C)c(=O)n2C	2%	-7%	2%	x	0%	-1%[46.1 µM]	3%	x
CCOC(=O)c1ccc(S(=O)(=O)NNC(=O)c2ccc3c(c2)nc(C)n3CC)cc1	8%	x	-17%	x	-5%	x	0%	x
O=C(COC(=O)C12CC3CC(CC(C3)C1)C2)NNC(=O)c1ccccc1	x	0%	14%	x	-1%	-5%	-14%	x
Cc1ccccc1-n1c(C)nc2ccsc2c1=O	x	u	9%	x	x	u	-22%	x
CC(=O)Nc1ccc(NC(=O)[C@@H](NC(=O)N2C[C@H]3C[C@@H](C2)c2cccc(=O)n2C3)C(C)C)cc1	-7%	x	-2%	x	3%	x	-12%	x
COc1ccc(OC)c(C2NC(=S)NC3=C2N2CCC3CC2)c1 (stereo unspecified)	2%	x	-16%	x	-1%	7%[46.1 µM]	-3%	x
O=C(CSc1nnc(-c2ccccc2)n1Cc1ccco1)NCc1ccc2c(c1)OCO2	-3%	-6%	16%	-11%	13%	-26%	0%	-3.0%
Cc1cccc(Cn2c(=O)n(Cc3ccc(C(=O)NC4CCN(Cc5ccccc5)CC4)cc3)c(=O)c3ccccc32)c1	x	-2%[46.1 µM]	x	8%	x	u	u	-1.4%
CCOc1ccc(C(=O)N/N=C(/C)C2C(=O)c3ccccc3C2=O)cc1	-5%	12%	-16%	-10%	-6%	u	-29%	-2.9%
COC(=O)c1c(NC(=O)c2cc3nc(-c4ccc(Br)cc4)cc(C(F)(F)F)n3n2)sc2c1CCCC2	x	-2%[46.1 µM]	x	-2%	x	x	7%	3.1%
Cc1nc(NC2=NCN(C3CCCCC3C)CN2)nc2ccccc12 (stereo unspecified)	-10%	x	x	2%	0%	2%	x	-2.3%
CN(C)S(=O)(=O)c1cccc(NC(=O)COC(=O)c2ccc([N+](=O)[O-])o2)c1	0%	3%	-7%	-3%	u	-4%	-5%	-3.6%
Cc1c(NC(=O)CCc2ccc(S(=O)(=O)N3CCOCC3)cc2)c(=O)n(-c2ccccc2)n1C	3%	7%	-7%	x	x	-3%	2%	x
CC(C)(C)CC(=O)NCC(c1ccc2c(c1)OCO2)N1CCN(c2ccccc2)CC1 (stereo unspecified)	x	-25%[46.1 µM]	x	-14%	x	x	-12%	-0.9%
CCOc1ccc(NC(=O)c2cnn(-c3ccc(C)c(C)c3)c2C2CCN(C(=O)OC(C)(C)C)CC2)cc1	x	3%[46.1 µM]	x	-1%	x	0%[46.1 µM]	-19%	1.2%
CN(C)CCN(C(=O)c1ccc2ccccc2c1)c1nc2c(F)cccc2s1	-56%	x	-5%	x	-13%	x	-19%	x
COc1ccc2c(c1)OC(=O)CC2c1ccccc1OC (stereo unspecified)	x	x	21%[18.4 µM]	-12%	-3%	x	-8%	-1.9%
COc1ccc(CCN2CC(C(=O)N(C)CC(=O)Nc3cccc(F)c3)CC2=O)cc1OC (stereo unspecified)	1%	22%	1%	x	-2%	13%	-15%	x
O=C(Cc1ccccc1)NCc1nc2ccccc2[nH]1	8%	1%	2%	x	x	15%	20%	x
O=C(NCc1ccccn1)C1CCN(S(=O)(=O)c2cc(Cl)ccc2Cl)CC1	x	-21%	0%	x	1%	16%	-11%	x
CNS(=O)(=O)c1cccc(C(=O)OCC(=O)N(CCC#N)c2ccccc2)c1	x	1%	-4%	x	0%	23%[46.1 µM]	22%	x
CCCc1cc(=O)oc2cc(OCC(=O)Nc3ccc(CN4CCOCC4)cc3)c(Cl)cc12	1%	x	2%	x	-1%	x	-24%	x
CC1CC2(CCCC2)Nc2ccc(F)cc21 (stereo unspecified)	7%	x	7%	x	8%	x	-12%	x
O=c1[nH]cnc2scc(-c3cccs3)c12	-9%	2%	-4%	4%	-5%	16%	-10%	-1.6%
CCCNc1c(NC(=O)c2ccc3c(c2)OCO3)c(=O)oc2ccccc12	6%	-6%[46.1 µM]	7%	x	19%	u	-12%	x
